Bioassay records (PubChem)
MT1-MMP act inh: blocks activation of human MT1-MMP; P50281; HT1080 RFP-PRO-GFP cells, GFP/RFP ratio fluorescence, overnight; percent of plate control window, DMSO zero; GFP/RFP ratio change, % at 20 µM; 0.061% of 360,000 active;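 active = GFP/RFP ratio change of at least 30% with cell ATP level not reduced by more than half and red fluorescence within 50% of control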; also: strong numbers were not always called active
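Test system: HT1080 cells expressing an RFP-PRO-GFP fluorescent reporter construct / Compound dosing: single-point 20 µM compound, 1% DMSO / Schedule: cells overnight before dosing, compound overnight, 37 °C, 5% CO2 / Evaluation: GFP/RFP fluorescence ratio / Control set: DMSO and RFP-L50D-GFP cell wells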
UUG fidelity: alters start codon recognition fidelity in yeast. S. cerevisiae UUG-firefly luciferase reporter, luminescence/redox ratio. activity score, % at 18.7 µM. 0.13% of 350,000 active;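 active = replicate mean at a twofold rise or more, about +100% in these data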;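 also: firefly luciferase made from a UUG start codon reports start codon fidelity; reporter light over untreated wells divided by growth signal over untreated wells; some hits fall short of that in this replicate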
PABP polyA inh: PABP-poly(A) binding inhibition; P11940; PABP-poly(A) RNA binding, fluorescence polarization; inhibition, % at 35 µM; 1% of 290,000 active; AID 2014;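 active = 50% or more with normal probe brightness, or confirmed in later tests; inconclusive = above 50% with abnormal brightness, or retests that disagree; inactive = below 50% or failed in later tests; about a fifth of its hits are not listed in these tables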;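 also: calls also rest on retests at 20 µM and on dose response follow-up; controls were probe without protein and protein plus probe with vehicle; some compounds called inactive have numbers as strong as hits; many hits fall short of the cut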
Target sequence (P11940 whole entry, looked up): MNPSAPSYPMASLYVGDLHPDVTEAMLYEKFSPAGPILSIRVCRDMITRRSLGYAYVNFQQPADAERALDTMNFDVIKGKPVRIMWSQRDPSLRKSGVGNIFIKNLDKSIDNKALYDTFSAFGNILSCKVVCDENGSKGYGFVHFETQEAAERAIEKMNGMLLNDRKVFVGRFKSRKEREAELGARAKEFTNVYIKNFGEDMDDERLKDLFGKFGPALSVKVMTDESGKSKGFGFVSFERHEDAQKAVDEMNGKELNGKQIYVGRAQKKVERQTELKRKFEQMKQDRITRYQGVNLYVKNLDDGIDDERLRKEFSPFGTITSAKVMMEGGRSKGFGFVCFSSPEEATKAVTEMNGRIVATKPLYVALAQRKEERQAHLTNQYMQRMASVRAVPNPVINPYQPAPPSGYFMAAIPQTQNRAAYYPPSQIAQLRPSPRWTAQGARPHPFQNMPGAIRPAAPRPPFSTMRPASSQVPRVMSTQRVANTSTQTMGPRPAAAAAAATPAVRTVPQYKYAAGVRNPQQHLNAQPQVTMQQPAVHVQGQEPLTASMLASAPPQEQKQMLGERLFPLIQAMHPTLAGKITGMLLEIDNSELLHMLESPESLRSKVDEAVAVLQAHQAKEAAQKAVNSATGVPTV
Rce1 inhib: blocks yeast Ras-converting enzyme; Q03530; AID 2563; yeast membranes, quenched prenylated peptide cleavage fluorescence; calls only; 0.27% of 290,000 active;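 active = fall in fluorescence gain of 50% or more versus controls, with final raw signal at or below 3038400; inconclusive = same 50% fall but final raw signal above 3038400; inactive = fall in fluorescence gain under 50%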;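 also: plate controls were neutral control wells for no effect and wells lacking membranes for full effect; tested at 10 µM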
Target sequence (Q03530 whole entry, looked up): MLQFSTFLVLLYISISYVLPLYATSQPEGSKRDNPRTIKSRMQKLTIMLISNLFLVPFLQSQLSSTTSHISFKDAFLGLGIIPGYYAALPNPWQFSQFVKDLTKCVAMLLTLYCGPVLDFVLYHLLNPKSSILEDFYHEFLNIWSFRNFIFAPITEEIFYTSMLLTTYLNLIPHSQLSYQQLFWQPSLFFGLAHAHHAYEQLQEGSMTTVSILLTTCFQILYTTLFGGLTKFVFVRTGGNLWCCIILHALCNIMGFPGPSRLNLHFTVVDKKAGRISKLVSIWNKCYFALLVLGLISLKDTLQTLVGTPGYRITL
CSC inhib: blocks cancer stem cells. cancer stem cell-like cells viability, luminescence. inhibition, % at 7.5 µM. 1.1% of 300,000 active. AID 2717;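 active = mean at 75% or more and at least half the replicates too; inconclusive = mean and replicates disagree; tested in HMLE shEcad cells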;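 also: 0% = median of negative and 100% = median of positive control wells; the first replicate is given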
eIF4H FP inh: inhibitors of RNA binding by human eIF4H. Q15056. eIF4H fluorescence polarization binding assay. inhibition, % at 35 µM. 0.94% of 290,000 active. AID 2012;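 active = 50% or more with normal probe brightness, or confirmed in later tests; inconclusive = above 50% with abnormal brightness, or retests that disagree; inactive = below 50% or failed in later tests; about a fifth of its hits are not listed in these tables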;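 also: calls also rest on retests at 20 µM and on dose response follow-up; 0% = protein and probe with vehicle and 100% = probe without protein; strong numbers were not always called active; many hits fall short of the cut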
HIV Env fusion: inhibitors of HIV Env-mediated cell fusion. inhibition, % at 12.3 µM. 1.1% of 360,000 active. HeLa-JRFL Env/CEM21 cell fusion, luciferase;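 active = mean replicate inhibition score of at least 50 and every replicate individually at or above 50; inconclusive = only one of the two criteria met; inactive = mean below 50 and not all replicates reaching 50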;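 also: 0% = plate neutral controls and 100% = maraviroc near 300 nM; one replicate is shown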
eIF4H FP inh retest: also measured in eIF4H FP inh; calls as there; inhibition, %; compound at 20 µM; confirmation average;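 mean of two retest wells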
PABP polyA inh retest: second read-out of PABP polyA inh, no call of its own (marks repeat the call); inhibition, %; compound at 20 µM; confirmation repeats;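 mean of two retest wells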
MT1-MMP act inh RFP: recorded beside MT1-MMP act inh, whose call it bears; RFP signal change, %; measured here: RFP expression control read;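 0 = vehicle wells; hits needed this value within 50% of zero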
* marks the source's active call; other numbers are inactive results; i = inactive; ? = inconclusive; / = no result given.

SMILES	MT1-MMP act inh	MT1-MMP act inh RFP	UUG fidelity	PABP polyA inh	Rce1 inhib	CSC inhib	eIF4H FP inh	HIV Env fusion	others
COc1cccc(C(=O)NN2c3ccccc3CCc3ccccc32)c1	7	7	-15	10	i	-9	1	/
COc1ccc(/C(O)=C2/C(=O)C(=O)N(CCN(C)C)C2c2ccc(OC)c(OC)c2)c(C)c1 (stereo not drawn)	4	2	/	/	i	4	/	/
CCn1c(=O)n(CC(=O)N2CCN(c3ccccc3F)CC2)c(=O)c2ccccc21	2	-2	-2	-2	i	-10	-10	/
COc1cc(/C=C2\SC(=S)N(N(C)c3ccccc3)C2=O)ccc1O	15	35	/	-4	i	60	-4	7
Cc1ccc(N(CC(=O)N2CCCCCC2)S(C)(=O)=O)cc1Cl	-1	-2	5	14	i	-9	18	-2
CCN(CC)C1=C(Cl)C(=O)C(Cl)C12OCCO2 (stereo not drawn)	-2	-1	-3	-11	i	-7	6	-1
CCN1C(=O)[C@H]2[C@@H](c3ccc(C)cc3)N[C@]3(CCCN(CC4CCCCC4)C3=O)[C@H]2C1=O	-2	-1	-24	/	/	/	/	3
O=C(c1ccccc1)C1CCN(C(=O)Nc2ccccc2)CC1	1	2	-10	-1	i	-2	8	24
Cc1cccc(NC(=S)Nc2ccc3cn[nH]c3c2)c1	3	-1	/	-3	i	14	-8	-15
CCCCCCCCN1C(=O)C(O)=C(C(C)=O)C1c1ccccn1 (stereo not drawn)	7	3	-14	-13	i	-8	6	-81
COc1ccc(COC(=O)CCc2c[nH]c3ccccc23)cc1F	0	1	-4	5	i	-2	-10	14
CC1=C(C(N)=O)C(c2ccc(Br)cc2)n2ncnc2N1 (stereo not drawn)	0	0	-13	0	i	-6	2	-8
Cc1ccc(N2C(=O)CC(c3ccsc3)C3=C2CC(C)(C)CC3=O)cc1 (stereo not drawn)	2	3	-11	-1	i	-3	11	107*
NS(=O)(=O)c1ccc(CCNC(=O)CN2C(=O)COc3ccc(S(=O)(=O)N4CCCC4)cc32)cc1	-4	-1	-19	14	i	-9	-7	-5
CNc1c(NC(=O)C2CCC(C)CC2)c(=O)oc2ccccc12 (stereo not drawn)	5	2	-16	-2	i	8	5	0
COc1ccc(CNC(=O)c2noc3c2CCCCC3)cc1	1	-4	/	-6	i	/	-7	-81
CCCNC(=O)C1(C)CCCN(C(=O)C(c2ccccc2)c2ccccc2)C1 (stereo not drawn)	-1	5	-11	/	/	/	/	-17
Cc1ccc(N2CCN(S(=O)(=O)c3ccc4c(c3)oc(=O)n4C)CC2C)cc1 (stereo not drawn)	1	-4	-20	-9	i	16	-11	3
CC(=O)c1cc(CCC(=O)NC2CCCCCC2)oc1C	1	2	-1	15	i	-12	-2	-5
COc1ccc(Br)cc1/C=N/NC(=O)CNC(=O)c1cccnc1	3	2	-22	-2	i	-6	5	11
Cc1ccc(NC(=O)C2CCN(S(=O)(=O)c3cccc4nonc34)CC2)cc1	0	-2	-3	3	/	9	-6	3
COc1cc(OC)cc(C(=O)N[C@H](C(=O)Nc2ccccc2N2CCOCC2)C(C)C)c1	-7	-2	-9	-2	i	/	-9	-44
COC(=O)c1ccc(CSc2nc3ccccc3[nH]2)o1	-1	0	-26	3	i	1	-5	18
CC(=O)Nc1ccc(S(=O)(=O)NCC2CCC(C(=O)N3CCN(c4ccccn4)CC3)CC2)cc1 (stereo not drawn)	5	2	/	-6	i	-6	2	/
COc1cccc(OCCOCCN(C)CCO)c1	0	6	-23	4	i	-3	0	/
SMILES	MT1-MMP act inh	MT1-MMP act inh RFP	UUG fidelity	PABP polyA inh	Rce1 inhib	CSC inhib	eIF4H FP inh	HIV Env fusion	others
Fc1ccc(-c2nnc(Cc3ccc(Cl)cc3)o2)cc1	4	1	-10	-1	i	-4	-4	-40
CCOc1nnnc2c1sc1nc(N3CCOCC3)c3c(c12)CCCC3	2	10	-2	-5	i	-8	-1	/
Cc1coc2cc3oc(=O)c(CC(=O)N(C)CC(=O)O)c(C)c3cc12	5	4	0	-2	i	-3	-14	-12
CCN=C(Nc1cccc(F)c1)SC1CC(=O)N(c2ccc(OC)cc2)C1=O (stereo not drawn)	11	0	-19	0	i	-29	-7	/
CC(C)(C)c1ccc(C(CC(=O)O)NC(=O)C23CC4CC(CC(C4)C2)C3)cc1 (stereo not drawn)	5	2	-1	0	i	-1	5	-8
Cc1[nH]n(-c2ccccc2)c(=S)c1C=Nc1ccc([N+](=O)[O-])cc1	2	2	/	3	/	19	3	4
CCCCN(CCCC)c1ccc(C(=O)c2ccccc2C(=O)O)c(O)c1	2	-2	-10	-3	i	-10	6	/
CC1(C)NC(=O)N(CCOCCOc2ccccc2-c2ccccc2)C1=O	0	-2	/	-5	i	14	5	-6
COc1ccc(-n2nc(C(=O)NCC(=O)NCCc3ccc(OC)c(OC)c3)c3ccccc3c2=O)cc1	0	1	-4	-7	i	-32	-9	5
CCCCC(CC)C(=O)Nc1cc(=O)[nH]c2nc3ccccc3n12 (stereo not drawn)	-4	-2	-22	2	i	-13	6	-5
NC(=O)COc1ccc2oc(=O)cc(-c3cc4ccccc4o3)c2c1	-5	-8	-9	/	i	1	/	-2
CCN1CCN(S(=O)(=O)c2cc(OC)ccc2OC)CC1	-3	1	-3	7	i	-8	6	-21
Cc1n[nH]c(=O)c2c(NC(=O)CSc3nnnn3-c3ccc(O)cc3)oc(C)c12	4	2	21	/	/	-1	/	/
CCN(CC)c1ccc(/C=N/NC(=O)c2c[nH]c3ccccc23)cc1	0	-6	/	-8	i	23	0	4
O=C(Nc1ccccc1F)C(=O)c1cn(CC(=O)N2CCCCC2)c2ccccc12	-1	-3	/	-6	i	-3	10	5
Cc1cc(C)n(CC(=O)N2CCCC(N3CCN(Cc4ccc5c(c4)OCO5)CC3)C2)n1 (stereo not drawn)	0	0	-4	-5	i	-10	-12	6
O=C(O)CCc1ccc(-c2cccs2)n1NC(=O)c1ccccc1Br	-1	2	-13	7	i	/	15	-25
Cc1ccc(OCC(=O)NNC(=O)c2cc3ccccc3o2)cc1C	-3	2	3	1	i	5	-4	-31
Cc1ccsc1C1C(C(=O)O)c2ccccc2C(=O)N1C (stereo not drawn)	-3	2	-14	23	i	-5	-4	-43
C#CCSc1n[nH]c(-c2ccco2)n1	6	3	-23	4	i	4	10	1
CN(C(=O)COC(=O)c1ccc(=O)n(Cc2ccccc2)n1)c1ccccc1	-2	-6	/	9	i	-6	2	2
CCOC(=O)N1CCN(C(=O)COC(=O)CSc2ccc([N+](=O)[O-])cc2)CC1	3	2	-24	/	i	-16	/	9
CCc1c(C(=O)Nc2nnc(C3CC3)s2)csc1C	-2	0	/	1	i	-9	-9	/
CCC1=C(C)CN(C(=O)NCCc2ccc(S(=O)(=O)NC(=O)NC3CCC(C)CC3)cc2)C1=O (stereo not drawn)	1	-2	21	/	i	0	/	2
COc1cc(C(=O)NCC2CCCN2S(=O)(=O)c2cccs2)cc(OC)c1OC (stereo not drawn)	4	-2	/	/	i	1	/	-49

Molecules shown so far that have fluorine:
SMILES	MT1-MMP act inh	MT1-MMP act inh RFP	UUG fidelity	PABP polyA inh	Rce1 inhib	CSC inhib	eIF4H FP inh	HIV Env fusion	others
CCn1c(=O)n(CC(=O)N2CCN(c3ccccc3F)CC2)c(=O)c2ccccc21	2	-2	-2	-2	i	-10	-10	/
COc1ccc(COC(=O)CCc2c[nH]c3ccccc23)cc1F	0	1	-4	5	i	-2	-10	14
Fc1ccc(-c2nnc(Cc3ccc(Cl)cc3)o2)cc1	4	1	-10	-1	i	-4	-4	-40
CCN=C(Nc1cccc(F)c1)SC1CC(=O)N(c2ccc(OC)cc2)C1=O (stereo not drawn)	11	0	-19	0	i	-29	-7	/
O=C(Nc1ccccc1F)C(=O)c1cn(CC(=O)N2CCCCC2)c2ccccc12	-1	-3	/	-6	i	-3	10	5

Following part:
SMILES	MT1-MMP act inh	MT1-MMP act inh RFP	UUG fidelity	PABP polyA inh	Rce1 inhib	CSC inhib	eIF4H FP inh	HIV Env fusion	others
Cn1c(Cc2cccs2)nnc1SCC(=O)Nc1ccccc1F	-2	3	/	/	i	-4	/	13
COc1ccc(S(=O)(=O)N2CCCCC2)cc1NC(=O)Cc1cccs1	4	7	-21	/	/	-21	/	/
COC(=O)C1=C(CS(=O)(=O)c2ccc(OC)c(OC)c2)NC(=O)NC1c1ccc(O)c(OC)c1 (stereo not drawn)	-3	3	15	1	i	-15	-15	-7
COc1cccc(-c2nc(CS(=O)(=O)CC(=O)NCc3ccccc3)c(C)o2)c1	2	-3	1	-12	i	8	-11	?
CCN(CC)c1c([N+](=O)[O-])c(=O)sc2ccccc12	0	3	/	4	i	-10	4	6
O=C1CCCC2=C1C(c1ccco1)Nc1ccc3ccccc3c12 (stereo not drawn)	-2	-8	-13	84*	i	3	80*	/	eIF4H FP inh retest=101*;PABP polyA inh retest=87*
CCn1cc(C(=O)O)c(=O)c2cc(F)c(N3CCN(C(=S)NC(=O)c4ccccc4F)CC3)cc21	-4	-9	/	12	i	-4	14	19
O=C(COC(=O)/C=C/c1ccc(Cl)cc1)Nc1ccc2[nH]c(=O)[nH]c2c1	-1	-1	-4	/	i	-10	/	-14
CCOc1ccc(C2CC(=O)NC3=C2C(=O)CCC3)cc1 (stereo not drawn)	-1	0	-18	-4	i	-12	-2	/
COc1ccc(-n2c(SCC(=O)Nc3nccs3)nc3sc4c(c3c2=O)CCN(C)C4)cc1	2	3	7	-14	i	-4	-6	/
Cc1ccc(-n2nnnc2CN2CCCCC2)cc1	-1	-4	/	1	i	5	-1	-2
O=C(c1cc2ccccc2oc1=O)N(Cc1ccc(F)cc1)C1CCS(=O)(=O)C1 (stereo not drawn)	-1	6	-8	10	i	3	4	-17
CCC(=O)Nc1ccc(C(=O)CSc2nc3ccccc3cc2CC)cc1	2	-2	-35	4	/	11	11	/
C/C(=N\NC(=S)NCc1ccccc1)c1ccc(Br)cc1	1	-1	/	35	i	19	-8	2
CCCN(CC(=O)Nc1ccccc1OC)C(=O)c1cnc(Cl)c(Cl)c1	-2	0	-3	-10	i	2	-10	5
CCO[C@@H]1OC(C(=O)N2CCN(Cc3ccccc3)CC2)=C[C@H](c2cn(C(C)=O)c3ccccc23)[C@H]1CCCO	2	-3	2	-12	i	9	-5	1
CCCCSc1nc(C)c(C(C)=O)cc1C#N	6	12	3	-5	i	10	-13	/
COc1ccc(O)c(C2(O)C(=O)c3ccccc3C2=O)c1	1	3	-16	10	i	-11	-4	10
Cc1onc(-c2c(F)cccc2Cl)c1C(=O)NCC1COc2ccccc2O1 (stereo not drawn)	-5	-9	-10	-2	i	9	-1	/
COc1cccc(N2CCN(c3ccc(S(=O)(=O)N4CCN(C)CC4)cc3[N+](=O)[O-])CC2)c1	7	-6	/	/	/	21	/	16
CCOc1ccc(Cl)cc1-c1cc(C(=O)NCc2cc(C(F)(F)F)cc(C(F)(F)F)c2)[nH]n1	2	-4	-3	/	/	/	/	-26
COc1ccc2ccccc2c1/C=N/NC(=O)c1ccc([N+](=O)[O-])cc1	5	3	-15	-7	i	1	10	19
Fc1cccc(Cc2noc(CN3CCCCC3CCc3ccccn3)n2)c1 (stereo not drawn)	-1	-4	-17	-10	i	12	0	-5
CCOC(=O)c1csc(N)c1-c1ccc([N+](=O)[O-])cc1	0	0	-5	14	i	-4	-5	5
CN(C)C1=NCCN1CCc1ccc(F)cc1	1	4	-14	/	/	-11	/	2
O=C(COC(=O)c1ccc(S(=O)(=O)N2CCCC2)cc1)Nc1ccc(F)cc1F	-1	1	-11	-9	i	-8	3	-1

Outcome played no part in choosing rows, and some 3% of all compounds hit somewhere here.
